Compound activity deposited in PubChem by National Center for Advancing Translational Sciences (NCATS).
RE007 growth inh – less growth of the S. pombe RE007 Vpr strain; S. pombe RE007 Vpr strain, BacTiter-Glo ATP luminescence, 24 h; control for the full effect not named in the record; Potency, µM (doses to about 92.2 µM), for inactives: at the highest dose activity change, negative = less growth; 360,000 compounds, 0.21% hits; AID 651644; active = well fitted falling curve with a large enough effect; inconclusive = small, poorly fitted or top-dose-only effect; inactive = no such curve, though single readings can be large or run the other way;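 note: % is set by controls: 0 for no effect and ±100 for the full control effect; nearly all actives have a fitted effect of over 50% in size; the assay follows cell death caused by Vpr and the record does not say whether a fall means rescue or toxicity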
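Fission yeast RE007 carrying one integrated HIV-1 vpr copy, seeded at OD 0.01 in PMG+AL medium with 23 nL pinned compound. Grown 24 h at 30 degrees; viability read by BacTiter-Glo luminescence after 5 min.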
StopGo reporter – FMDV 2A StopGo reporter, luciferase signal | human cells with a luciferase reporter of 2A StopGo recoding; control for the full effect not named in the record | Potency, µM (titrated, usually from 57.9 µM), for the others: at the top dose signal change, negative = less light | 410,000 compounds, 1.2% hits; active = well fitted falling curve with a large enough effect; inconclusive = small, poorly fitted or top-dose-only effect; inactive = no such curve, though single readings can be large or run the other way; tested in HEK293T cells; note: % is set by controls: 0 for no effect and ±100 for the full control effect; nearly all actives have a fitted effect of over 45% in size; luciferase light after 4 h
SARS PLpro yeast – blocks SARS-CoV papain-like protease in a yeast assay. S. cerevisiae expressing SARS-CoV PLpro, growth rescue; control for the full effect not named in the record. 330,000 compounds, 0.19% hits. Potency, µM (series often up to 32.9 µM), inactives show at the top dose activity, positive = growth rescue; active means well fitted rising curve with a large enough effect; inconclusive means small, poorly fitted or top-dose-only effect; inactive means no such curve, though single readings can be large or run the other way; note: 0% is about no effect; nearly all actives have a fitted effect of over 55% in size; growth read by luminescence after 48 h
An asterisk follows results filed as active; ? = inconclusive; & = joins results of further samples; [ ] = remark or other dose. Potency is the fitted concentration of half-maximal effect. These rows are one share of the data; count on the stated rates, not on these rows.

item	Molecule	RE007 growth inh	StopGo reporter	SARS PLpro yeast
1	C#CCOCCOCCOCCNc1nc(N2CCN(C(=O)CCCCCCCCCCNC(=O)[C@H](CCCCN)n3cc(CCO)nn3)CC2)nc(N2CCN(C(=O)CCCCCCCCCCNC(=O)[C@H](CCCN=C(N)N)n3cc(C[C@@H](C)CC)nn3)CC2)n1	2%	?	0%
2	O=C(COC(=O)c1ccccc1OCc1ccc(F)cc1)NCC1CCCO1 (stereo not drawn)	-13%	0%	1%
3	O=C1N[C@@H](Cc2ccccc2)COC(=O)[C@H](Cc2ccc(F)cc2)CC/C=C/C[C@@H]1CC(=O)N(CCO)Cc1ccccc1	10%	?	-11%
4	O=C(Nc1cccnc1)c1sc(Nc2ccccc2F)nc1-c1ccccc1	15%	-5%	0%
5	CNC(=O)COC(=O)/C=C/c1cccc(F)c1	-6%	13%	1%
6	Cn1c(SCC(=O)NNC(=O)c2ccccc2Br)nnc1C(F)(F)F	-15%	-9%	-9%
7	C=CC[C@@H](CC/C=C/C=C/CC/C=C\[C@@H]1CSC([C@@H]2C[C@@H]2C)=N1)OC	3%	-28%	0%
8	C=CCC[C@@H](Cc1ccc(F)cc1)C(=O)OC[C@H](C)NC(=O)[C@@H](CC=C)CC(=O)N[C@@H](CO)Cc1ccccc1	0%	-7%	-12%
9	N#CC1(NC(=O)COC(=O)c2ccc(-c3ccc(O)cc3)cc2)CCCCC1	-9%	36%[activator]	-8%
10	CCCCN(C(=O)c1ccc(-c2ccc(Cl)cc2)o1)c1c(N)n(CCCC)c(=O)[nH]c1=O	0%	-20%	-2%
11	CCOC(=O)[C@H]1[C@H]2COc3ccc(Cl)cc3[C@@H]2N2C(=O)CNC(=O)[C@@]12C	?	0%	-22%
12	COc1ccc(CCNC(=O)C(=O)Nc2ccc3c(c2)OCCO3)cc1OC	17%	5%	1%
13	Cc1ccc(NC(=O)COC(=O)c2c[nH]c3ccccc23)cc1C	-9%	3%	-2%
14	Cc1ccsc1C(=O)OCC(=O)c1ccc(OC(F)F)cc1	?	29%	2%
15	O=C(CN1CCN(C(=O)c2ccc(-c3nc4ccccc4s3)o2)CC1)Nc1ccc(F)cc1	0%	?	-2%
16	C[C@H](CO)N1C[C@H](C)[C@@H](CN(C)C(=O)NC2CCCCC2)Oc2c(NC(=O)C3CC3)cccc2C1=O	10%	50%[activator]	-5%
17	CCN(CC)c1ccc(/C=C/C(=O)c2cccnc2)cc1	19%	-12%	2%
18	COC(=O)Cn1cnc2c(cnn2-c2ccccc2)c1=O	5%	20%	-1%
19	Cc1nnc(SCC(=O)c2c[nH]c3ccccc23)n1C1CC1	-7%	14%	4%
20	CS(=O)(=O)c1ccc(NC(=O)c2ccccc2-n2cnnn2)cc1	2%	-2%	1%
21	C#CCCc1cscc1/C=[N+](\[O-])c1ccc(C(=O)OCC)cc1	-14%	39%[activator]	6%
22	Cc1ccc(S(=O)(=O)NC(CC(C)C)C(=O)N2CCN(C/C=C/c3ccccc3)CC2)cc1 (stereo not drawn)	-9%	-24%	15%
23	Cc1cccc(C(C)n2nnc3ccccc32)c1O (stereo not drawn)	27%	-12%	-2%
24	CCn1nnc2cc(C(=O)OCC(=O)N(C)Cc3cccc(F)c3)ccc21	2%	7%	-8%
25	C/C(=N\NC(=O)c1ccc(O)cc1)c1ccc2c(c1)OCCO2	8%	32%[activator]	1%
26	CN(C)CCCSc1nc2ccccc2s1	2%	6%	0%
27	COc1cccc(NC(=O)CN(C)CC(=O)NCc2ccc3c(c2)OCO3)c1	0%	-6%	1%
28	Cc1ccc(-c2cc(C(=O)N3CCN(c4ccc(O)cc4)CC3)c3ccccc3n2)cc1	3%	58%[activator]	-12%
29	COc1ccccc1CNC(=O)COC(=O)/C=C/c1ccc2ccccc2n1	-2%	23%	3%
30	COc1ccc2c(c1)OC[C@H]1[C@H]2N2C(=O)CN(Cc3ccc(C)cc3)C(=O)[C@@]2(C)[C@H]1c1ccccc1	3%	-14%	11µM*
31	COc1cc(OC)cc(C(=O)N[C@H](C(=O)OCC(=O)NC(=O)c2cccn2C)C(C)C)c1	-8%	-13%	0%
32	Cc1cc(NC(=O)COc2ccc([N+](=O)[O-])cc2)no1	-4%	11%	3%
33	CN(c1ccccc1)S(=O)(=O)c1cccc(C(=O)NCc2ccccc2CN2CCCC2)c1	-5%	-15%	1%
34	COc1cc(NC(=O)CN2C(=O)NC3(CCOc4ccccc43)C2=O)cc(OC)c1 (stereo not drawn)	1%	-12%	-1%
35	Cc1ccc(CSc2nnc(C)c(=O)[nH]2)cc1	19%	13%	4%
36	COc1cccc(/C=C/C(=O)Nc2ccc3nc4n(c(=O)c3c2)CCCC4)c1OC	14%	?	1%
37	COc1cc(-c2ccc3c(=O)c4ccccc4sc3c2)cc(OC)c1OC	1%	-7%	6%
38	COc1ccccc1N(C)S(=O)(=O)c1ccc(C(=O)NCC2CCCCC2)cc1	17%	-23%	-7%
39	CC1CCN(C(=O)CN2c3cccc4cccc(c34)S2(=O)=O)CC1	3%	-3%	0%
40	O=C(NCC1CCCCC1)c1cc(S(=O)(=O)N2CCCCC2)ccc1Cl	3%	-22%	0%[6.58 µM]
41	COc1cccc(C2=CC(=O)C[C@H](c3ccc(Cl)cc3)C2)c1	-9%	-17%	-14%
42	CC[C@H]1C/C=C\Cc2ccccc2[C@@H](C(=O)C[C@@H](O)CC(C)=O)OC1=O	-12%	-27%	2%
43	CC1(NC(=O)Nc2cc([N+](=O)[O-])ccc2O)CCS(=O)(=O)C1 (stereo not drawn)	2%	-9%	-3%
44	COc1ccc(Cl)cc1C(=O)OCC(=O)NCc1cccs1	-6%	15%	-4%
45	Cc1ccnc(NC(=O)c2cccc(NC(=O)CC3SC(N4CCCCC4)=NC3=O)c2)c1 (stereo not drawn)	-18%	-2%	0%
46	COc1ccc(Cl)cc1NC(=O)C(C)OC(=O)Cn1cc(C(F)(F)F)ccc1=O (stereo not drawn)	8%	-17%	0%
47	CCN1C(=O)[C@@H]2[C@@H](c3ccc(-c4ccc(OC)cc4)c(OC)c3)N3CCCC[C@@]3(C(=O)OC)[C@@H]2C1=O	-1%	-12%	-5%
48	COc1ccccc1C(=O)COC(=O)c1cccc(-n2cnnn2)c1	9%	11%	-1%
49	O=C(CCC(=O)c1ccc(F)cc1)NCC1(N2CCCCC2)CCCCC1	-15%	-14%	-16%
50	CCCCN(CCCC)C(=O)C[n+]1cccc(/C=N/O)c1	0%	-2%	1%
51	CC1CC1C(=O)OCC(=O)Nc1cccc(F)c1 (stereo not drawn)	-7%	43%[activator]	4%
52	O=C(N=C1SC2CS(=O)(=O)CC2N1c1ccccc1)c1cccc([N+](=O)[O-])c1 (stereo not drawn)	6%	-20%	0%
53	CCN(C[C@H]1N[C@@](CC)(C(=O)OC)[C@H]2C(=O)N(Cc3ccccc3)C(=O)[C@@H]12)C(=O)Nc1ccc(C)cc1	-22%	1%	0%
54	CC(NC(=O)c1ccco1)C(=O)O (stereo not drawn)	6%	10%	-1%
55	CC1(c2nnc(Cc3ccccc3)o2)CC(c2ccc(OC(F)(F)F)cc2)=NO1 (stereo not drawn)	18%	-11%	10µM*
56	COc1ccc(OCC(=O)N/N=C/C2CC=CCC2)cc1 (stereo not drawn)	6%	2%	-1%
57	O=C(Cn1ccc(NC(=O)OCc2ccccc2)nc1=O)NCCCN1CCCC1=O	0%	-8%	5%
58	Cc1ccnc(N=O)c1	-26%	44%[activator]	6%
59	C/C(=N\NC(=O)c1cccnc1)c1ccc(C)c([N+](=O)[O-])c1	-18%	13%	1%
60	Cn1c(N)c(C(=O)CSc2nnc(C3CC3)n2Cc2ccccc2)c(=O)[nH]c1=O	-1%	-4%	10%

Additional entries.
item	Molecule	RE007 growth inh	StopGo reporter	SARS PLpro yeast
61	CCC(C)Sc1ccc(-c2nc3ccc(C)cn3c2NCc2ccccc2)cc1 (stereo not drawn)	-3%&-9%	25%&18%	-1%
62	CC(C)Cn1nc(C(=O)OCC(=O)NCC(F)(F)F)c2ccccc2c1=O	1%	3%	0%
63	O=c1ccc(NS(=O)(=O)c2ccccc2Cl)cn1Cc1ccc(Cl)c(Cl)c1	-6%	10%	-5%
64	CC[C@@]1(C(=O)OC)N[C@H](CN(C)C(=O)C2CCCCC2)[C@@H]2C(=O)N(Cc3ccccc3)C(=O)[C@@H]21	5%	0%	2%
65	C=CC[C@@H](CC(=O)N[C@H](CO)Cc1ccccc1)C(=O)NCCOC(=O)[C@@H](CC=C)Cc1ccc(F)cc1	-7%	?	0%
66	CN(c1ccccc1)P(=O)(N(C)c1ccccc1)N(C)c1ccccc1	3%	-29%	-2%
67	CCN1C(=O)[C@@H]2[C@@H](c3ccc(-c4ccc(Cl)c(Cl)c4)c(OC)c3)N3CCC[C@@]3(C(=O)OC)[C@@H]2C1=O	-20%	-29%	-7%
68	Cc1ccc(C(=O)c2c3ccc([N+](=O)[O-])cc3[n+]([O-])n2CCCN)cc1	-11%	7%	-3%
69	C=CC[C@@H](CC(=O)NCCO)C(=O)N[C@H](COC(=O)[C@H](CC=C)CC(=O)OC(C)(C)C)Cc1c[nH]c2ccccc12	27%	-22%	2%
70	COc1ccc(S[C@@H](CCN2CC[C@H](NC(=O)OCc3ccccc3)CCC2=O)c2ccccc2)cc1	3%	?	-2%
71	O=[N+]([O-])c1nn(-c2ccc(Cl)cc2)n(O)c1=NCc1ccccc1	-22%	13%	2%
72	CNc1snc(C)c1C(=O)OCC(=O)c1ccc(OC)c(F)c1	3%	?	-6%
73	Cc1ccc(C)c(N2CCN(C(=O)CCc3nc(-c4ccc(F)cc4)no3)CC2)c1	2%	-8%	3%
74	CCN1C(=O)[C@@H]2[C@@H](c3ccc(-c4cccc(Cl)c4)cc3)N3CCC[C@@]3(C(=O)OC)[C@@H]2C1=O	-7%	-8%	5%
75	O=C(COC(=O)[C@@H]1CCCN1S(=O)(=O)c1ccccc1F)NCc1ccc2c(c1)OCO2	-6%	-14%	4%
76	O=S(=O)(NCc1ccc(F)cc1)c1ccccc1Br	-14%	44%[activator]	3%
77	O=C(CSc1nc2ccccc2s1)Nc1cc(C(=O)O)cc(C(=O)O)c1	16%	-3%	2%
78	C[C@H](CO)N1C[C@H](C)[C@@H](CN(C)Cc2ccc(C(=O)O)cc2)Oc2c(NS(=O)(=O)c3cn(C)cn3)cccc2C1=O	5%	65%[activator]	3%
79	COc1ccc(OC)c(S(=O)(=O)N2CCN(CC(O)CN3CCOCC3)CC2)c1 (stereo not drawn)	2%	-6%	-10%
80	COc1ccc(NC(=O)CSc2nnnn2C2CC2)cc1S(=O)(=O)N1CCOCC1	-5%	-15%	8%
81	O=C(CSc1cc(Cl)ccc1Cl)NC1CC1	-10%	-6%	3%
82	CC(=O)c1cc2c(cc1NC(=O)Cc1ccsc1)OCO2	1%	-6%	4%
83	Nc1c(N(CCO)C(=O)C2CCCC2)c(=O)[nH]c(=O)n1Cc1ccccc1	-5%	-1%	5%
84	CCS(=O)(=O)c1ccc(N)cc1	-17%	-7%	-2%
85	COc1ccc(-n2nc(C(=O)Nc3cc(OC)c(OC)c(OC)c3)c3ccccc3c2=O)c(OC)c1	-5%	-3%	2%
86	COc1ccc(/C=N/NC(=O)c2cccc(O)c2)cc1Cn1nc(C)c([N+](=O)[O-])c1C	-4%	?	0%
87	O=C(CCNC(=O)c1ccccc1)NNC(=O)c1ccc(F)cc1	15%	-14%	2%
88	Cc1cccc(Nc2nnc(SC(C)C(=O)NC3CC3)s2)c1 (stereo not drawn)	-11%	-17%	20%
89	COc1ccc(NC(=O)N(C)C[C@H]2Oc3ccc(NS(=O)(=O)c4ccc(OC)cc4)cc3C(=O)N([C@H](C)CO)C[C@@H]2C)cc1	-13%	-9%	5%
90	CC(OC(=O)c1ccncc1)C(=O)Nc1ccc([N+](=O)[O-])cc1Cl (stereo not drawn)	-4%	-4%	1%
91	COc1ccc(CNCc2cc(Cl)ccc2O)cc1	-22%	9%	2%
92	COC(=O)C1=C(c2ccc(-c3ccccc3)c(F)c2)C[C@@H]2CC[C@H]1N2C(=O)NCCCOC(C)C	19%	0%	0%
93	COc1ccccc1CNC(=O)C1CC2Cn3c(nc4cc(C)c(C)cc43)C2N1C (stereo not drawn)	-15%	1%	-9%
